Bioassay records deposited in PubChem by National Center for Advancing Translational Sciences (NCATS).
HSD17B inhib: qHTS Assay for Inhibitors of HSD17B4, hydroxysteroid (17-beta) dehydrogenase 4; 7.6% of 75,000 active; AID 893, 2007; recombinant HSD17B10, NADH fluorescence kinetic; many of its hits are not listed in these tables; Potency, µM (highest dose often 57.1 µM), for the others: at the highest dose activity change, negative = inhibition, hits mostly inhibitors; 3-hydroxyacyl-CoA dehydrogenase type-2 (Homo sapiens), Q99714; active means well fitted inhibition curve with a large enough effect; inconclusive means small, poorly fitted or top-dose-only effect; inactive means no such curve, though single readings can be large or run the other way;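 further: the protocol describes HADH2 (HSD17B10) and not the HSD17B4 of the title; nearly all actives have a fitted effect of over 70% in size; most hits overshoot -100% by far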
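Enzyme plus compound, 15 min room temperature; substrate mix added (NAD+ 1 mM, beta-hydroxybutyryl-CoA 90 uM final); plates read kinetically for NADH fluorescence. HADH2 was His-tagged, E. coli-derived, 20 nM.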
The depositor's hits bear a star; u = inconclusive; [ ] = dose if it differs, or a comment. On the % scale 0 is the no-effect control and ±100 the full control effect; potency means the concentration at half of the fitted maximal effect. An excerpt; the hit share may differ from the screen's.

SMILES	HSD17B inhib
Cc1cc(Oc2ccccc2)nc(OCC#N)n1	-4%
CCOC(=O)Nc1sc(NS(=O)(=O)c2ccccc2)nc1C	-9%
Oc1cccc2ccc(SSc3ccc4cccc(O)c4n3)nc12	1µM*
CC(C)(C)NC(=O)CN(C(=O)CS(=O)CC(=O)Nc1ccc(F)cc1)c1ccc(Cl)cc1 (stereo unspecified)	-14%
COCCn1c(C23CC4CC(CC(C4)C2)C3)n[nH]c1=S	-2%
Cc1noc(C)c1S(=O)(=O)NCCCN1CCN(Cc2ccccc2)CC1	-3%
CC(C)=C[C@H]1[C@@H](COC(=O)c2ccccc2Cl)C1(C)C	0%[11.4 µM]
Cc1c(NCc2nc3ccccc3[nH]2)c(=O)n(-c2ccccc2)n1C	-7%
CCOC(=O)c1sc(C)c2c(=O)n(CC)nnc12	0%
Cn1c(CNC(=O)c2ccc(F)cc2)nc2ccccc21	4%
CCOc1ccc(C(=O)N2CCN(c3cccc(C)c3C)CC2)cc1	-1%
CC1CCN(c2ccc(C(=O)NCCc3ccccc3)cn2)CC1	-21%
CCOc1ccccc1Nc1cc(C)nc2nc(C)nn12	5%
Cc1c(C(=O)N2CCOCC2)oc2c1C(=O)CC(C)(C)C2	5%
O=C(NC1CCCCC1)c1ccc2c(=O)n(CC3CCCO3)c(=O)[nH]c2c1 (stereo unspecified)	32µM*

A second format for part of the listing above:
SMILES | HSD17B inhib
CCOC(=O)Nc1sc(NS(=O)(=O)c2ccccc2)nc1C | -9%
Oc1cccc2ccc(SSc3ccc4cccc(O)c4n3)nc12 | 1µM*
CC(C)(C)NC(=O)CN(C(=O)CS(=O)CC(=O)Nc1ccc(F)cc1)c1ccc(Cl)cc1 (stereo unspecified) | -14%
COCCn1c(C23CC4CC(CC(C4)C2)C3)n[nH]c1=S | -2%
Cc1noc(C)c1S(=O)(=O)NCCCN1CCN(Cc2ccccc2)CC1 | -3%

Further entries.
SMILES	HSD17B inhib
Nc1nc(NCc2ccccc2)nc(-c2ccccc2)n1	0%
COc1ccc(CN2CCN(c3ccccn3)CC2)c(OC)c1	9%
Cc1ccc(-c2nnc3ccc(SCC(=O)NCc4ccco4)nn23)cc1	u
C=CCSCC(N)C(=O)O (stereo unspecified)	0%
Cc1nc2nc(-c3cccnc3)[nH]n2c(=O)c1Cc1ccccc1	1%
C=CCSc1nnc(Cn2c(=O)sc3ccccc32)n1C	7%
COc1ccc2c(c1OC)C(=O)OC2Nc1ccccc1S(=O)(=O)C(F)F (stereo unspecified)	-12%
CN(C)C(CNC(=O)NC1CCCCC1)c1cccnc1 (stereo unspecified)	5%
CCOC(=O)N1CCN(C(=O)c2ccc(N3C(=O)c4ccccc4C3=O)cc2)CC1	5%
COc1ccc(NC(=O)N2CCCC3(CCN(C(=O)c4ccco4)CC3)C2)cc1	9%
CCOC(=O)N1CCC(Nc2c(NCCCN(CC)c3cccc(C)c3)c(=O)c2=O)CC1	4%
CCc1nc(-c2ccc(-c3ccc(OC)cc3)nc2OC)no1	32µM*
CCCOc1ccccc1NC(=O)c1ccc(N)cc1	0%
COC(=O)CSc1nc(-c2ccccc2)cc(-c2ccco2)c1C#N	20µM*
CCOC(=O)c1cc2c(=O)n(C)c3ccccc3c2s1	u
COc1ccc(-c2nnc3ccc(SCC(=O)N4CCCC4)nn23)cc1	1%
CCc1nc2ccc(C(=O)NCc3ccco3)cc2nc1CC	-11%
O=C(O)C1C2C=CC(O2)C1C(=O)NCc1ccc(Cl)cc1 (stereo unspecified)	u
Cc1cccc(CS(=O)(=O)Cc2ccc(C(=O)NCc3ccco3)o2)c1	-15%
COc1ccc(/C=N\n2nnc3ccccc32)cc1	0%
Cc1cc2c(nc1C)CCCN2CC(O)CN1CCCc2nc(C)c(C)cc21	-1%[11.4 µM]
O=C(O)CSc1nnc(-c2ccncc2)n1CCc1ccccc1	-8%
Cc1ccc(-c2noc(CCC(=O)N3CCN(c4cccc(C(F)(F)F)c4)CC3)n2)cc1	-9%
Cc1cc(C)n(-c2nc3c(c(=O)n(C)c(=O)n3C)n2Cc2cccc(Br)c2)n1	6%
Cc1ccc(Cl)cc1N1CCN(C(=O)C2CCN(c3nnc(-n4cccc4)s3)CC2)CC1	-1%
Cc1[nH]c(=O)[nH]c(=O)c1NC(=O)CSc1ncccc1-c1nc2ccccc2[nH]1	-2%
CCS(=O)(=O)N1CCc2cc(OC)c(OC)cc2C1	12%
O=C(NC1CCCC1)C(c1cccnc1)N(C(=O)c1csnn1)C1CC1 (stereo unspecified)	3%
Cc1nn(-c2ccccn2)c(C)c1Oc1ccccc1O	u
CCN(CC)c1ccc(NC(=O)CN2C(=O)CSc3ncccc32)c(C)c1	-5%

Already shown: entries from further up.
SMILES	HSD17B inhib
COc1ccc(-c2nnc3ccc(SCC(=O)N4CCCC4)nn23)cc1	1%
CCc1nc2ccc(C(=O)NCc3ccco3)cc2nc1CC	-11%
O=C(O)C1C2C=CC(O2)C1C(=O)NCc1ccc(Cl)cc1 (stereo unspecified)	u
Cc1cccc(CS(=O)(=O)Cc2ccc(C(=O)NCc3ccco3)o2)c1	-15%
COc1ccc(/C=N\n2nnc3ccccc32)cc1	0%

Returning to the listing, starting 2 compounds before the break.
SMILES	HSD17B inhib
Cc1nn(-c2ccccn2)c(C)c1Oc1ccccc1O	u
CCN(CC)c1ccc(NC(=O)CN2C(=O)CSc3ncccc32)c(C)c1	-5%
c1ccc(CNc2ncnc3ccccc23)cc1	-21%
CCCNC(=O)c1ccccc1NC(=O)CN(c1ccccc1OCC)S(C)(=O)=O	6%
COC(=O)[C@@]1(Cc2ccc(F)cc2)[C@H]2c3cc(C(=O)N(C)C)n(Cc4ccccn4)c3C[C@H]2CN1C(=O)c1ccccc1	7%
COc1cccc(-c2nc(CC(=O)O)cs2)c1OC	u
CCOc1ccc(NC(=O)CNC(=O)c2ccc(OC)c(OC)c2)cc1	4%
Nc1cc(=O)nc(SCc2ccccc2)n1Cc1ccco1	-2%
COc1ccc(CCNC(=O)CSc2nnnn2-c2ccccc2)cc1	0%
Cc1cccc(C)c1NS(=O)(=O)c1ccc(F)cc1	-15%
CCOC(=O)N1CCC(NC(=O)c2cn(-c3ccc(OC)cc3)c(=O)c3ccccc23)CC1	1%
CCOC(=O)c1[nH]c(C)c(C(=O)Nc2ccc(Cl)cc2)c1C	1%
CCN(Cc1ccccc1)C(c1ccncc1)c1nnnn1C(C)(C)C (stereo unspecified)	-2%
NC(=O)C1CC(=O)N(Cc2ccc3c(c2)OCO3)C(=Nc2ccccc2)S1 (stereo unspecified)	-1%
CCC(Oc1ccccc1)C(=O)Nc1cc(C)on1 (stereo unspecified)	1%
CCN(CC)S(=O)(=O)c1cccc(-c2nnc(SCC(=O)NCCC3=CCCCC3)n2N)c1	6%
O=C(CSc1nnnn1C1CCCCC1)NCCc1ccccc1	-3%
Cn1c2c(c(=O)[nH]c1=O)C(NC(=O)c1ccco1)(C(F)(F)F)C(=O)N2 (stereo unspecified)	6%
OC1CCCC1	2%
O=C(CN1C(=O)COc2ccccc21)Nc1ccc(F)cc1	-2%
O=C(NCc1cccs1)c1cccnc1C(=O)O	5%
Cc1cc(C)cc(N(CC(=O)NC2CCCCC2)C(=O)CCC(=O)Nc2cc(C)ccn2)c1	5%
O=C(Nc1c(C(=O)N2CCOCC2)cnn1-c1ccccc1)c1ccco1	14%
O=C(CCNC(=O)Cn1ccc2ccccc2c1=O)NCCN1CCN(c2ccccc2F)CC1	-6%
Cc1ccc(C(=O)NCc2ccc(Cl)cc2)o1	-5%
NC(=O)CN1C(=O)C2CCCCN2C(=O)c2ccccc21 (stereo unspecified)	-1%
COc1ccc(-c2nc(CS(=O)CC(=O)NCc3ccccn3)c(C)o2)cc1 (stereo unspecified)	-29%
CCOC(=O)C1CCCN(c2c(NCCCN(CC)c3cccc(C)c3)c(=O)c2=O)C1 (stereo unspecified)	4%
O=C(OCC(O)CN1CCCCC1)C12CC3CC(CC(C3)C1)C2 (stereo unspecified)	6%
O=C(Nc1ccccc1)c1ccc2nc(-c3ccco3)c(-c3ccco3)nc2c1	u
Cc1nc2ccc(NC(=O)N3CCCCC3)cc2s1	u
O=C(COc1ccc2c(c1)OCO2)NC12CC3CC(CC(C3)C1)C2	0%

As entered above.
HSD17B inhib with `CCOc1ccc(NC(=O)CNC(=O)c2ccc(OC)c(OC)c2)cc1` = 4%
HSD17B inhib with `C=CCSc1nnc(Cn2c(=O)sc3ccccc32)n1C` = 7%
HSD17B inhib with `Cc1cc(C)cc(N(CC(=O)NC2CCCCC2)C(=O)CCC(=O)Nc2cc(C)ccn2)c1` = 5%

(cont.)
SMILES	HSD17B inhib
COC(=O)NCCOC(=O)N(O)c1ccc(Br)cc1	-7%
COc1ccccc1N1CCN(c2cc(=O)n(-c3ccc(Cl)cc3)c(=O)[nH]2)CC1	11%
COc1ccc(C(C#N)(CCC#N)CCC#N)cc1OC	u
COCc1cc(=O)[nH]c(SCC(=O)Nc2ccccc2)n1	8%
COc1ccc(C)cc1NC(=O)CSc1nc(SC)ns1	-5%
Cn1c(=O)c2c(nc(NCc3ccccc3)n2Cc2ccc(F)cc2)n(C)c1=O	8%
Cc1ccc(NC(=O)c2ccc3ccccc3n2)nc1	-10%
CNc1ccc(OC(F)F)cc1C(=O)c1ccccc1	-8%
